YB-1 expr inh: inhibitors of YB-1 gene expression, primary screen, cell-based, fluorescence; U2OS, qRT-PCR YB-1 vs CDIP delta delta Cp, 16 h; stronger effect = higher value; zero = DMSO, each unit about twofold; delta delta Cp (YB-1 minus CDIP) (no concentration beside the values); actives 0.37% (n = 30,000);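 active means delta delta Cp rounded down to an integer at or above 3, about 3 SD of DMSO wells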;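 further: higher means less YB-1 transcript or more CDIP transcript relative to DMSO; stock transfer was 100 nL into about 100 µL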
Shh pathway inh: Hedgehog pathway signaling inhibitors, primary screen, luminescence, Shh-LIGHT2 cells, Gli-luciferase | Shh-LIGHT2 Gli-luciferase reporter, 30 h | actives 2.1% (n = 22,000) | inhibition, % (concentration not given with the values);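 active means replicate mean of 65% or more; inconclusive means mean lower but half the replicates past it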;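 further: pathway switched on by Shh-conditioned medium diluted 1 in 25 in low serum; 100 nL library stock added to about 40 µL; 0% = median of neutral wells and 100% = positive control level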
MITF inhib: inhibitors of MITF, primary screen, MITF inhibitor project, cell-based, luminescence; TRPM1 promoter luciferase, 24 h; inhibition, % (test concentration not listed); actives 0.28% (n = 37,000); AID 2240, 2010;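 active means most replicates at 85% or more, or half of them and the mean; inconclusive means half reach 85% but not the mean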;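 further: human melanocyte line stably carrying TRPM1 promoter luciferase reporter; 0% = vehicle wells and 100% = a positive control; the first replicate is given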
PD-1 reverse act: activators reversing PD-1 mediated T-cell inhibition, primary screen, luminescence, primary human CD4 T cells, PD-L1 beads; 29,000 tested, under 10 active; CellTiter-Glo 96 h; activation, % (test concentration not listed); AID 2316, 2010;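 active means replicate mean of 50% or more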;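 further: 0% = median vehicle wells and 100% = positive control; 100 nL library stock added to about 50 µL; numbers are from one replicate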
An asterisk follows results filed as active; ? = inconclusive; / = no result given. A portion of the library; count on the stated rates, not on these rows.

SMILES	YB-1 expr inh	Shh pathway inh	MITF inhib	PD-1 reverse act
COc1ccc(NC(=O)CC2NCCNC2=O)cc1 (centres undefined)	/	/	-52.5	2.9
C[C@@H]1CN([C@@H](C)CO)C(=O)c2cc(NS(=O)(=O)c3ccc(Cl)cc3)ccc2O[C@H]1CN(C)Cc1ccc(Cl)c(Cl)c1	-0.115	12.7	45.8	-0.8
COc1ccc(NC(=O)Nc2cccc3c2O[C@@H](CN(C)S(=O)(=O)c2cn(C)cn2)[C@@H](C)CN([C@@H](C)CO)C3=O)cc1	-0.239	-14.9	0.1	0.4
C[C@@H]1CN([C@H](C)CO)C(=O)Cc2cc(NC(=O)Nc3cccc4ccccc34)ccc2O[C@H]1CN(C)Cc1ccc(Cl)c(Cl)c1	-0.161	7.8	1.2	0.7
C[C@H](CO)N1C[C@H](C)[C@H](CN(C)S(=O)(=O)c2ccccc2)Oc2c(NS(=O)(=O)c3ccc(Cl)cc3)cccc2C1=O	0.375	16.2	19.1	/
CCC(C)N1CCC2(CC1)N=c1c(c3c4c5c(C)c(O)c3c(O)c1=NC(=O)/C(C)=C\C=C[C@H](C)[C@H](O)[C@@H](C)[C@@H](O)[C@@H](C)[C@H](OC(C)=O)[C@H](C)[C@@H](OC)/C=C\O[C@@](C)(O5)C4=O)N2 (some centres undefined)	-0.339	-45.9	-3.6	/
Cc1ccc(S(=O)(=O)Nc2ccc3c(c2)CC(=O)N([C@@H](C)CO)C[C@@H](C)[C@@H](CN(C)CC2CCCCC2)O3)cc1	0.0676	15.7	-6.3	-1.3
C[C@@H]1CN([C@@H](C)CO)C(=O)c2cc(NS(=O)(=O)c3cccs3)ccc2O[C@@H]1CN(C)S(=O)(=O)c1ccc(Cl)cc1	-0.185	9.0	9.7	0.5
O=[N+]([O-])c1ccc(N2CCN(S(=O)(=O)c3ccc(F)cc3)CC2)cc1NCc1cccnc1	/	/	7.9	-0.9
C[C@H](CO)N1C[C@H](C)[C@H](CN(C)C(=O)Nc2cccc3ccccc23)Oc2c(NS(=O)(=O)c3cn(C)cn3)cccc2C1=O	-0.614	-6.3	-8.9	0.5
C[C@@H]1CCCCO[C@@H](CN(C)CC2CC2)[C@@H](C)CN([C@H](C)CO)C(=O)c2cc(NC(=O)Nc3ccc4c(c3)OCO4)ccc2O1	-0.00674	-8.9	4.3	/
COc1ccccc1NC(=O)CCc1nc(-c2ccccc2F)no1	/	/	-6.7	-0.2
O=C(CSc1nnc(-c2ccncc2)n1-c1ccc(F)cc1)Nc1ccc(Cl)cc1	/	/	13.8	-1.7
Cc1cccnc1NCC(O)COc1ccccc1 (centres undefined)	/	/	-18.0	-0.8
C[C@@H]1CN([C@@H](C)CO)C(=O)c2cc(NC(=O)C3CC3)ccc2O[C@@H]1CN(C)C(=O)Nc1ccc(C(F)(F)F)cc1	0.338	-1.0	-5.4	-3.0
C[C@H]1CN([C@@H](C)CO)C(=O)c2cccc(NS(=O)(=O)c3ccc(F)cc3)c2O[C@H]1CN(C)S(=O)(=O)c1ccc(F)cc1	-0.291	27.1	-4.9	-0.8
C[C@H]1CN([C@@H](C)CO)C(=O)Cc2cc(NS(C)(=O)=O)ccc2O[C@H]1CN(C)CC1CCCCC1	-0.142	-7.2	-7.1	1.9
Cc1noc(C)c1NC(=O)N(C)C[C@@H]1Oc2c(NC(=O)c3cnccn3)cccc2C(=O)N([C@@H](C)CO)C[C@@H]1C	0.691	-27.9	-12.9	-1.4
O=S(=O)(c1ccc(Cl)cc1)N1CCc2ccccc21	-0.239	80.9*	48.2	-9.4
COc1ccc(CN(C)C[C@@H]2Oc3ccc(NS(=O)(=O)c4ccc(F)cc4)cc3CC(=O)N([C@H](C)CO)C[C@@H]2C)cc1	0.0659	11.2	-18.3	/
CC(C)NC(=O)Nc1ccc2c(c1)CC(=O)N([C@@H](C)CO)C[C@@H](C)[C@@H](CN(C)S(=O)(=O)c1ccc(F)cc1)O2	0.135	8.2	-14.7	/
C[C@H]1CN([C@@H](C)CO)C(=O)c2cccc(NC(=O)C3CCOCC3)c2O[C@@H]1CN(C)S(=O)(=O)c1ccccc1	0.286	22.6	-0.5	0.0
C[C@@H]1CN([C@H](C)CO)C(=O)c2cc(NC(=O)CCCCCC(=O)Nc3ccccc3N)ccc2O[C@H]1CN(C)S(C)(=O)=O	-0.117	/	-19.8	1.9
CC1(C)CC(C)(O)P(=O)(c2ccccc2)O1 (centres undefined)	-0.0214	-16.6	1.8	-0.7
C[C@H](CO)N1C[C@H](C)[C@H](CN(C)Cc2ccc(C(=O)O)cc2)Oc2ccc(NS(C)(=O)=O)cc2CC1=O	-0.191	/	-7.5	/
C[C@@H]1CN([C@H](C)CO)C(=O)Cc2cc(NS(=O)(=O)c3ccccc3)ccc2O[C@H]1CN(C)S(=O)(=O)c1cccs1	0.274	-7.3	-11.7	1.8
COc1ccc(S(=O)(=O)N(C)CC(=O)Nc2ccccc2C(F)(F)F)cc1Cl	/	/	5.3	-2.0
C[C@H]1CN([C@@H](C)CO)C(=O)c2cc(N(C)C)ccc2O[C@@H]1CN(C)C	0.167	-12.7	9.4	0.2
C[C@H]1CN([C@@H](C)CO)C(=O)c2cc(NC(=O)Cc3cn(C)c4ccccc34)ccc2O[C@@H]1CN(C)C(=O)Nc1ccccc1	0.448	-30.7	10.3	-1.3
O=C(COc1ccc(C(=O)Nc2ccc(F)cc2)cc1)Nc1cc(Cl)cc(Cl)c1	/	/	-33.5	0.6
O=c1[nH]c(C2=C(O)Cn3c2nc(=O)c2ccccc23)nc2ccccc12	-0.0774	-15.5	-9.9	0.8
COC(=O)c1ccc(NC(=O)CNS(=O)(=O)c2c(C)cc(C)cc2C)cc1	/	/	8.4	-2.3
O=c1cc(CSc2n[nH]c(-c3cccs3)n2)c2ccc(O)cc2o1	0.204	-12.1	-9.4	-0.5
C[C@@H]1CN([C@H](C)CO)C(=O)c2cccc(NS(=O)(=O)c3ccc(F)cc3)c2O[C@H]1CN(C)C	-0.117	-23.8	-6.5	1.6
C=C1C(=O)OC2/C=C(\C)CC/C=C(\C(=O)O)CC/C=C(\C)CCC12 (centres undefined)	0.481	-5.6	-6.0	-1.4
Cc1sc2ncnc(SCC(=O)Nc3ccccc3[N+](=O)[O-])c2c1C	/	/	6.4	-0.2
COc1ccc(S(=O)(=O)N(C)C[C@@H]2Oc3ccc(NS(=O)(=O)c4c(C)noc4C)cc3C(=O)N([C@H](C)CO)C[C@H]2C)cc1	-0.24	/	-4.2	1.9
C[C@@H]1CN([C@H](C)CO)C(=O)Cc2cc(NS(=O)(=O)c3cccs3)ccc2O[C@H]1CN(C)Cc1ccc(C(F)(F)F)cc1	0.00885	-3.1	-2.0	-3.2
CCn1c(SCC(=O)Nc2ccccc2C)nnc1-c1ccco1	/	/	1.1	2.8
C=C[C@@]1(C)C[C@@H](O)C2=C([C@H]1O)[C@H](OC(C)=O)CC1[C@](C)(C(=O)OC)CC[C@H](O)[C@]21C (some centres undefined)	0.491	-22.3	/	/
O[C@@H]1[C@@H](O)C=C2CCN3Cc4cc5c(cc4[C@H]1C23)OCO5 (some centres undefined)	-0.626	95.8*	62.8	/
O=c1oc2cc(O)ccc2s1	0.385	?	9.5	/
COc1cccc(NC(=O)CSc2nnc(C)n2-c2ccc(F)cc2)c1	/	/	2.5	1.0
COc1ccc(S(=O)(=O)Nc2ccc3c(c2)CC(=O)N([C@@H](C)CO)C[C@@H](C)[C@@H](CN(C)Cc2ccc(Oc4ccccc4)cc2)O3)cc1	0.00978	22.9	9.5	-0.3
C[C@H]1CN([C@@H](C)CO)C(=O)c2cccc(NS(=O)(=O)c3ccccc3)c2O[C@H]1CN(C)Cc1ccncc1	-0.134	2.7	11.2	/
CC(C)C1=C2CCCCC2NC(=O)N1 (centres undefined)	-0.0322	11.3	0.9	0.6
COc1cc2c(cc1OC)C(CC#N)=NCC2	1.14	5.8	-4.4	0.9
C[C@H]1CN([C@@H](C)CO)C(=O)Cc2cc(NC(=O)Cn3cnnn3)ccc2O[C@@H]1CN(C)Cc1ccccc1	0.0772	/	-4.1	0.6
C[C@@H]1CN([C@@H](C)CO)C(=O)Cc2cc(NC(=O)Nc3ccc(C(F)(F)F)cc3)ccc2O[C@@H]1CN(C)S(=O)(=O)c1ccc(Cl)cc1	-0.141	26.1	30.8	-7.4
COc1ccc(S(=O)(=O)Nc2ccc3c(c2)C(=O)N([C@@H](C)CO)C[C@@H](C)[C@H](CN(C)Cc2ccc(C(F)(F)F)cc2)O3)cc1	0.821	-4.8	15.5	1.0
Cc1ccc(S(=O)(=O)N(C)C[C@H]2Oc3ccc(NC(=O)Cc4ccccc4)cc3C(=O)N([C@H](C)CO)C[C@@H]2C)cc1	-0.242	28.3	19.9	-1.0
C[C@H]1CN([C@@H](C)CO)C(=O)Cc2cc(NC(=O)Nc3ccccc3)ccc2O[C@H]1CN(C)S(C)(=O)=O	0.0015	-11.5	16.0	-1.2
CC(=O)OCC1=C(C(=O)O)N2C(=O)[C@@H](NC(=O)Cc3cccs3)[C@H]2SC1	-0.00586	-63.0	8.9	/
O=C(COc1ccccc1)Nc1nn[nH]n1	/	/	27.7	2.2
C[C@H](CO)N1C[C@H](C)[C@H](CN(C)CC2CCCCC2)Oc2ccc(NS(=O)(=O)c3ccc(Cl)cc3)cc2CC1=O	0.00927	40.7	-10.8	-5.0
C[C@H]1CN([C@@H](C)CO)C(=O)c2cc(NS(C)(=O)=O)ccc2O[C@H]1CN(C)S(=O)(=O)c1cccs1	0.0354	-1.3	-1.4	0.4
CCC(=O)c1c(O)cc(O)cc1O	0.0111	3.6	13.5	/
Cc1cc(Oc2coc3cc(OCC(=O)Nc4ccccc4F)ccc3c2=O)cc(C)c1Cl	/	/	78.5	-0.7
O=C(Oc1ccc2ccccc2c1)c1ccccc1S(=O)(=O)c1ccccc1[N+](=O)[O-]	/	/	12.9	-3.9
Cc1noc(C)c1NC(=O)Nc1ccc2c(c1)C(=O)N([C@H](C)CO)C[C@H](C)[C@@H](CN(C)C)OCCCC[C@@H](C)O2	-0.37	-9.8	2.0	0.5
Continuation.
SMILES	YB-1 expr inh	Shh pathway inh	MITF inhib	PD-1 reverse act
COc1ccc(S(=O)(=O)Nc2cccc3c2O[C@H](CN(C)Cc2ccc(C(=O)Nc4ccccc4N)cc2)[C@H](C)CN([C@@H](C)CO)C3=O)cc1	-0.153	/	16.2	-2.1
C[C@@H]1CCCCO[C@@H](CN(C)C(=O)Cc2ccccc2)[C@@H](C)CN([C@H](C)CO)C(=O)c2cc(NC(=O)CCCCCC(=O)Nc3ccccc3N)ccc2O1	-0.206	/	-10.7	0.6
C[C@@H]1CN([C@H](C)CO)C(=O)c2cccc(NS(=O)(=O)c3cn(C)cn3)c2O[C@H]1CN(C)C(=O)Nc1cccc2ccccc12	-0.31	5.9	1.3	1.0
C[C@H]1CN([C@@H](C)CO)C(=O)Cc2cc(NC(=O)Cc3cn(C)c4ccccc34)ccc2O[C@H]1CN(C)C	0.733	13.0	5.4	0.7
C[C@@H]1CC[C@@]2(C)C(C(=O)O)=CCC[C@@H]2[C@@]1(C)CCc1ccoc1	0.386	-9.5	-6.5	0.5
C[C@H](CO)N1C[C@H](C)[C@H](CN(C)S(C)(=O)=O)Oc2ccc(NS(=O)(=O)c3cccs3)cc2C1=O	-0.167	/	-12.2	4.1
C[C@@H]1CCCCO[C@H](CN(C)C(=O)C2CCCCC2)[C@@H](C)CN([C@H](C)CO)C(=O)c2cc(N(C)C)ccc2O1	0.181	-29.4	21.6	0.5
CCC(=O)[C@@]1(C)[C@H](C)C[C@H]2[C@@H]3CCC4=CC(=O)C=C[C@]4(C)[C@H]3[C@@H](O)C[C@@]21C	0.284	64.7*	-12.5	/

Bioassay records as filed in PubChem BioAssay.
